Sfp inh = blocks B. subtilis Sfp PPTase activity; Potency, µM, without a hit: max response, negative = inhibition, most hits filed as inhibitors; 310,000 compounds, 3.5% hits; AID 1490; Biochemical Sfp PPTase activity, qHTS; active means well fitted inhibition curve with a large enough effect; inconclusive means small, poorly fitted or top-dose-only effect, or another doubt; inactive means no such curve, though single readings can be large or run the other way;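 further: the enzyme is Sfp with the accession as filed and its product quenches rhodamine fluorescence; potency means the concentration at half of the fitted maximal effect; 0% = enzyme reaction without inhibitor and -100% = no enzyme wells; top concentration of the series not given in the record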
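After 15 min at room temperature with compound, 15 nM Sfp received 5 uM rhodamine-CoA plus 12.5 uM BHQ-2-ybbR (50 mM Hepes pH 7.6, 10 mM MgCl2). Rate came from the fluorescence difference over 30 min, ex 525/em 598 nm.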
Menin MLL FP FL = inhibitors of human menin-MLL interaction, wild-type MLL peptide. Fluorescence polarization, fluorescein-MLL peptide displacement from menin. FP activity change, % at 61.4 µM. 290,000 tested, under 10 active; inconclusive = falling polarisation curve, or a change in total fluorescence; inactive = total fluorescence flat and polarisation flat or rising; no compound was filed as active; the % refers to the polarisation; negative = inhibition;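 further: % of control where 0% means no effect; inhibitors lower the polarisation; unlabelled MLL peptide was the positive control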
* = called active by the depositor; ? = inconclusive; & = joins results of further samples; [ ] = another dose, or the depositor's remark.

The first two compounds, to show the layout:
SMILES | Sfp inh | Menin MLL FP FL
CCCCNC(=O)C(c1ccc(OCC(=O)OC)c(C(=O)OC)c1)N(CCc1ccccn1)C(=O)CCCCCN1C(=O)NC(c2ccc(-c3ccccc3)cc2)C(C(=O)OCc2ccccc2)=C1C (stereo unspecified) | 15% | -7.0
Cc1c(C)c2c(c(C)c1O)CC[C@@](C)(C(=O)O)O2 | 1% | -1.0[24.8 µM]

The listing, previewed entries included:
SMILES | Sfp inh | Menin MLL FP FL
CCCCNC(=O)C(c1ccc(OCC(=O)OC)c(C(=O)OC)c1)N(CCc1ccccn1)C(=O)CCCCCN1C(=O)NC(c2ccc(-c3ccccc3)cc2)C(C(=O)OCc2ccccc2)=C1C (stereo unspecified) | 15% | -7.0
Cc1c(C)c2c(c(C)c1O)CC[C@@](C)(C(=O)O)O2 | 1% | -1.0[24.8 µM]
Cc1nc(NCc2ccccc2)c2nc(-c3ccccc3)n(CC3CCN(C)CC3)c2n1 | 10% | 0.0
CC#CCN1c2ccccc2[C@]23C[C@@H](C(=O)OC)N(C(=O)c4cccs4)C2=NC(C(=O)OC)=C(C(=O)OC)[C@H]13 | 0% | -3.1[11.7 µM]
COc1ccc(-c2nc(-c3ccccc3)oc2Nc2c(C)cccc2C)cc1 | -17% | -3.7
CC(=O)N1[C@H](C)C=C[C@]1(Cc1ccccc1)C(=O)NCc1ccccn1 | 5% | 2.1
C[N+]1(C)CCC[C@H]1C(=O)[O-] | 3%&-5% | -2.5
O=C(O)C(S)[C@@H](S)C(=O)O (stereo partly specified) | -90% | 1.5
COc1ccc(C(=O)CCC(=O)O)c2ccccc12 | 17% | -0.2
CN1c2cc3c(cc2N=C(c2ccc(C(=O)O)cc2)c2ccccc21)C(C)(C)CCC3(C)C | -13% | 0.7
Cc1nc(NC2CCCCC2)c2nc(-c3ccccc3)n(CCN(C)C)c2n1 | 8% | 2.1
COc1cc(OC)c2cc(-c3ccncc3)cnc2c1 | -10% | ?
N#CCCCS(=O)(=O)c1nnnn1C1CCCCC1 | 6% | 0.8
COC(=O)c1ccc(C#CC(NP(=O)(c2ccccc2)c2ccccc2)c2ccccc2)cc1 (stereo unspecified) | ? | 3.3
COC(=O)C1=C(C(=O)OC)[C@@H]2N(Cc3ccccc3)c3ccccc3[C@@]23C[C@@H](C(=O)OC)N(S(=O)(=O)c2cccs2)C3=N1 | -14% | -0.6[11.7 µM]
CO[C@]1(NC(=O)CSCC#N)C(=O)N2C(C(=O)O)=C(CSc3nnnn3C)CS[C@H]21 | -15% | 1.6[24.8 µM]
COc1cc2oc(=O)c3c4c(cc5ccc(c1CCN(C)C)c2c53)OCO4 | -17% | -1.6
CCCCCCCCCCCCCCCCC(C(=O)O)C(O)(CC(=O)O)C(=O)O (stereo unspecified) | -17% | -4.1
O=C(O)C1Cc2c([nH]c3ccccc23)C(c2coc3ccccc3c2=O)N1 (stereo unspecified) | 1% | ?
COC(=O)C1(Cc2ccccc2)C=C2C(=C(c3ccccc3)C(=O)C2C)CN1 (stereo unspecified) | ? | ?
CC1C(=O)CC2C3(C)CCC2(C(C)C(=O)O)C(=O)C13 (stereo unspecified) | 10% | 0.5
CCCC[C@@H](C=O)NC(=O)[C@H](CC(C)C)NC(=O)[C@H](CC(C)C)NC(C)=O | 19%&11% | 2.8
COC(=O)C(c1ccc(OC)c(OC)c1)C1c2ccccc2C=C(C)N1C(=O)OC (stereo unspecified) | ? | 3.6
CNC[C@@H](O)[C@@H](O)[C@H](O)[C@H](O)CO | 26% | 2.8
CO[C@@H]1/C=C\CC(=O)N[C@@H](C)C(=O)OC[C@@H](OC)[C@H](C)CCCC(=O)OC[C@H]1C | 16% | -6.7[11.7 µM]
CCCCCCCCCCCCC/C=C/[C@@H](O)[C@@H](N)COP(=O)(O)O | 3%&10% | 0.6&-1.9
CC(=O)N[C@@H](CSC/C=C(\C)CC/C=C(\C)CCC=C(C)C)C(=O)O | ? | 5.5
COC(=O)[C@@]1(Cc2ccc(F)cc2)[C@H]2c3cc(C(=O)N4CCCC4)n(CCN4CNCC4=O)c3C[C@H]2CN1C(=O)c1ccccc1 | -2% | -12
CN(C)c1ccc(O)c2c1C[C@@H]1C[C@H]3C(N(C)C)C(=O)C(C(N)=O)=C(O)[C@@]3(O)C(=O)C1=C2O (stereo partly specified) | 2% | 7.2
COc1cc(OC)c2c(c1Cl)O[C@@]1(C2=O)[C@H](C)CC(=O)C[C@@H]1OC | 21% | -0.3[24.8 µM]
COC(=O)[C@@H]1C[C@@]2(O)[C@@H](O)[C@@H](O)[C@@H](O)C[C@H]2N1Cc1ccc(N2CCOCC2)cc1 | 17% | 3.3
CC1CCC2C(=O)N3C(CCC(C)[C@H]3c3ccccc3Br)C(=O)N2C1c1ccccc1Br (stereo partly specified) | -3% | 2.8[11.7 µM]
CN(C)c1cccc(OC2C=CC(C#Cc3ccccc3)OC2CO)c1 (stereo unspecified) | -3% | -1.7[11.7 µM]
CCC1=C2CC[C@H]3C(=O)N(C)C(=O)[C@H]3[C@H]2[C@@]2(C)C(=O)N(CC(=O)OC)C(=O)N2C1=O | 9% | 4.9
Nc1ncnc2c1nc(Br)n2[C@@H]1O[C@H]2COP(=O)(O)O[C@@H]2[C@@H]1O | 9%&12% | -4.9
Cc1ccc(CC2(O)CCN(CCOc3ccc(O)cc3)CC2)cc1 | 10% | 0.9
C=C1c2ccccc2O[C@H](C(=O)OCC)C1OC (mixture of isomers) | 5% | 9.0[94.6 µM]
Cc1ccccc1NC(=O)c1cnc(Nc2nc3ccccc3s2)nc1C | 14% | 1.7
Cc1ccccc1OC1C=CC(C#Cc2ccc(Br)cc2)OC1CO (stereo unspecified) | 37%[activator] | 8.6[11.7 µM]
O=C(/C=N/O)NCCCCNC(=O)/C=N/O | -11% | 2.2[11.7 µM]
CCOCCn1c(N2CCCN(C)CC2)nc2ccccc21 | 19% | -7.3
CO[C@@H]1COC(=O)C/C=C\[C@@H](C)COC(=O)[C@H](Cc2ccccc2)NC(=O)C/C=C\[C@H]1C | 13% | 4.1[11.7 µM]
CC[C@H](C)[C@H](NC(=O)[C@H](CCCNC(=N)N)NC(=O)[C@@H](NC(=O)[C@H](CCCNC(=N)N)NC(=O)[C@H](CCCCN)NC(=O)[C@H](CCCNC(=N)N)NC(=O)[C@@H](NC(=O)[C@H](CC(N)=O)NC(=O)[C@@H](N)CS)[C@@H](C)O)[C@@H](C)CC)C(=O)N[C@@H](CCC(N)=O)C(=O)N[C@@H](CCCNC(=N)N)C(=O)NCC(=O)N1CCC[C@H]1C(=O)NCC(=O)N[C@@H](CCCNC(=N)N)C(=O)N[C@@H](C)C(=O)N[C@@H](Cc1ccccc1)C(=O)N[C@H](C(=O)N[C@H](C(=O)N[C@H](C(=O)NCC(=O)N[C@@H](CCCCN)C(=O)O)[C@@H](C)CC)[C@@H](C)O)C(C)C | -22% | -14
COc1ccc(OC2C(O)COC2/C=C/c2ccccc2)cc1 (stereo unspecified) | 6%&-6% | -2.6&-2.1[11.7 µM]
CC(=O)OC[C@@H]1O[C@@H](O/N=C2/C[C@@H](O)[C@@H](O)[C@@H]3[C@@H]4C(=O)N(c5cccc(Oc6ccccc6)c5)C(=O)[C@H]4CC[C@H]23)[C@H](OC(C)=O)[C@H](OC(C)=O)[C@@H]1OC(C)=O | 6% | 2.9[11.7 µM]
COc1ccc(C(OCCN2CCC[C@H](C(=O)O)C2)(c2ccc(OC)cc2)c2ccc(OC)cc2)cc1 | -11% | 0.7
CC[C@H](CC[C@H](C)[C@@H]1CC[C@@H]2[C@H]3CC=C4C[C@@H](O)CC[C@]4(C)[C@H]3CC[C@]21C)C(C)C | 4% | 0.0[24.8 µM]
CCOc1ccccc1O[C@@H](c1ccccc1)[C@@H]1CNCCO1 | 17% | ?
O=C(OCCO)c1ccccc1O | 2% | -4.3
O=C1[C@H]2[C@H]3[C@H](O)[C@H](O)C/C(=N/OC[C@@H](O)COCc4ccco4)[C@H]3CC[C@@H]2C(=O)N1C1CCCCC1 | -1% | 5.8[11.7 µM]
C[C@@H]1O[C@H](O[C@@H]2[C@H](C)O[C@H](O[C@@H]3[C@H](C)O[C@H](O[C@H]4CC[C@]5(C)[C@@H](CC[C@@H]6[C@H]5C[C@@H](O)[C@]5(C)[C@@H](C7=CC(=O)OC7)CC[C@]65O)C4)C[C@@H]3O)C[C@@H]2O)C[C@H](O)[C@@H]1O | -7% | -4.7[24.8 µM]
COc1ccc(-c2nc(-c3ccccc3)c(Nc3ccc4ccccc4c3)o2)cc1 | -4% | 6.6
O=C(O)c1ccc(S(=O)(=O)N[C@H](Cc2c[nH]c3ccccc23)C(=O)O)cc1 | -9% | 1.3
COC(=O)c1ccc(C(NC(=O)OCc2ccccc2)/C(I)=C/[C@@H](C)C(=O)NCc2ccc(OC)c(O)c2)cc1 (stereo partly specified) | 16% | -1.6
CCC1=C2CC[C@H]3C(=O)N(CC(=O)OC)C(=O)[C@H]3[C@H]2[C@@]2(C)C(=O)N(Cc3ccccc3)C(=O)N2C1=O | 21% | -0.2
Cc1noc(C)c1-c1ccc2ncnc(NCc3ccc(Br)cc3)c2c1 | 4% | -3.2
CCOC(=O)Cn1c(=O)sc2cccc(Cl)c21 | -14% | -2.4
CCOc1ccc(NC(=O)CC(C)O)cc1 (stereo unspecified) | -3% | -0.9
COC/C=C/C1=CC2=CC(=O)C(C)(OC(=O)c3cccs3)C(=O)C2=CO1 (stereo unspecified) | -8% | 7.3
CC(C)[C@@H](CC(=O)N[C@@H]1CCNC[C@H]1C(=O)N[C@H](CC(=O)N[C@@H](CCC(=O)O)CC(=O)O)Cc1c[nH]c2ccccc12)NC(=O)C[C@H](CO)NC(=O)[C@@H]1CCCC[C@H]1N | 9% | -5.3

An excerpt from above in order of molar mass, descending.
SMILES | Sfp inh | Menin MLL FP FL
CC[C@H](C)[C@H](NC(=O)[C@H](CCCNC(=N)N)NC(=O)[C@@H](NC(=O)[C@H](CCCNC(=N)N)NC(=O)[C@H](CCCCN)NC(=O)[C@H](CCCNC(=N)N)NC(=O)[C@@H](NC(=O)[C@H](CC(N)=O)NC(=O)[C@@H](N)CS)[C@@H](C)O)[C@@H](C)CC)C(=O)N[C@@H](CCC(N)=O)C(=O)N[C@@H](CCCNC(=N)N)C(=O)NCC(=O)N1CCC[C@H]1C(=O)NCC(=O)N[C@@H](CCCNC(=N)N)C(=O)N[C@@H](C)C(=O)N[C@@H](Cc1ccccc1)C(=O)N[C@H](C(=O)N[C@H](C(=O)N[C@H](C(=O)NCC(=O)N[C@@H](CCCCN)C(=O)O)[C@@H](C)CC)[C@@H](C)O)C(C)C | -22% | -14
COc1ccc(C(OCCN2CCC[C@H](C(=O)O)C2)(c2ccc(OC)cc2)c2ccc(OC)cc2)cc1 | -11% | 0.7
CCC1=C2CC[C@H]3C(=O)N(CC(=O)OC)C(=O)[C@H]3[C@H]2[C@@]2(C)C(=O)N(Cc3ccccc3)C(=O)N2C1=O | 21% | -0.2
O=C(O)c1ccc(S(=O)(=O)N[C@H](Cc2c[nH]c3ccccc23)C(=O)O)cc1 | -9% | 1.3
CCOc1ccccc1O[C@@H](c1ccccc1)[C@@H]1CNCCO1 | 17% | ?
CCOc1ccc(NC(=O)CC(C)O)cc1 (stereo unspecified) | -3% | -0.9

Further results.
SMILES | Sfp inh | Menin MLL FP FL
O=C(O)c1ccc(/C=C2/SC(=S)N(c3cccc(C(F)(F)F)c3)C2=O)cc1 | ? | -4.5
C[N+](C)(CCCOc1ccccc1)c1ccccc1 | 37%[activator] | 0.4[24.8 µM]
Cc1noc(NS(=O)(=O)c2cccc3c(N(C)C)cccc23)c1C | 50µM* | ?
COC/C=C/C1=CC2=CC(=O)C(C)(OC(=O)c3cnc4ccccc4n3)C(=O)C2=CN1CCc1ccccn1 (stereo unspecified) | 19% | 0.5[11.7 µM]
COc1ccc2c(c1)C(=O)[C@@H](OC(=O)NCc1ccco1)[C@H](c1ccc(OC)c(Br)c1)O2 | 4% | 1.2
C/C(CCN1CCCc2nc(C)c(C)cc21)=N\O[C@@H](C)c1cn([C@H](CO)Cc2ccccc2)nn1 | 20%&-2% | -0.4&-7.4[11.7 µM]
CCOC(=O)/C=C/CCCC=O | 3% | 0.9
COC(=O)[C@@]1(Cc2ccccc2)[C@H]2c3cc(C(=O)N(C)C)n(Cc4ccccn4)c3C[C@H]2CN1C(=O)c1ccccc1 | 2% | 3.8

Screening results as filed in PubChem.

Some of the compounds tested, so the mix of outcomes need not match the whole.
